Assay outcomes deposited in PubChem by several laboratories.
MLL AF4-AF9 inh: inhibitors of AF4 peptide binding to AF9, primary screen, biochemical, AlphaScreen, biotin-AF4 peptide, FLAG-AF9, single point; 0.47% of 350,000 active; inhibition, % at 10 µM;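 active = every replicate reaching a set inhibition limit, whatever the replicate mean, cut at about 25% in these data; inconclusive = mean inhibition reaches that limit but some replicates miss it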;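 also: 0% = plate neutral control median and 100% = total signal loss; the record names both 10 and 1 µM as test concentration; the first replicate is given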
Target sequence (P42568 whole entry, looked up): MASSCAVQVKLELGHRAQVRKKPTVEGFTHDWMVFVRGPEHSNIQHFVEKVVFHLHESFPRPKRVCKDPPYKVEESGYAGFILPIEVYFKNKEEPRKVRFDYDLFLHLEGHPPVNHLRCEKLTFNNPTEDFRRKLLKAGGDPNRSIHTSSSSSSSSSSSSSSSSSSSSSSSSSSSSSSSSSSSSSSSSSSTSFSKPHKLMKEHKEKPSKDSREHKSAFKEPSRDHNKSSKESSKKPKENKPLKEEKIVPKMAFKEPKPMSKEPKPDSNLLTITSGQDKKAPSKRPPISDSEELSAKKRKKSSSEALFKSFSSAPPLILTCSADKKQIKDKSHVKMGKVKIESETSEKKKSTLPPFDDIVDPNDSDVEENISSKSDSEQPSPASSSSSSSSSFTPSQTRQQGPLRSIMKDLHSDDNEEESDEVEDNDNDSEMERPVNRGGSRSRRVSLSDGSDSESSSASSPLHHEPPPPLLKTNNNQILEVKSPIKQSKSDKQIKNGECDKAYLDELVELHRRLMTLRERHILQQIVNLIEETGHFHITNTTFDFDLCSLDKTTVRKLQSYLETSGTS
HNF4A DNA FP: change in binding of human HNF4A to DNA, primary screen, biochemical, fluorescence polarization, FITC-DNA. Hepatocyte nuclear factor 4-alpha (Homo sapiens), P41235. 1 h. activity change, % at 10 µM. 0.3% of 360,000 active; in the data active = activity change above about 30%, passing the limit was not always enough;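 also: controls were the assay level and a saturating level of protein; the project sought stronger binding though the title names inhibitors; some compounds called inactive have numbers as strong as hits; positive values seem to mean higher polarization but the record does not say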
Vif A3G: inhibitors of Vif binding to APOBEC3G peptide, primary screen, biochemical, TR-FRET, GST-Vif 1-94, biotin-A3G peptide, dose response retest (AID 1117319); Virion infectivity factor (Human immunodeficiency virus type 1 group M subtype B (isolate …; TR-FRET GST-Vif / biotin-A3G peptide binding; higher % means a stronger effect; test concentration not given here; strong numbers were not always called active; inhibition, %, or IC50 in µM where a hit was titrated; 0.57% of 260,000 active;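 active = above the screen mean plus three standard deviations and confirmed in dose response; inconclusive = results disagree or hit not tested in dose response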;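 also: Vif residues 1-94 fused to GST binding biotinylated APOBEC3G peptide 110-148; 0% = full assay without inhibitor and 100% = GST in place of GST-Vif; retest series ran down from 100 µM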
E coli growth: E. coli growth inhibition, primary screen, OD600; 0.21% of 330,000 active; OD600 absorbance (no concentration beside the values); Escherichia coli growth, 23 h; active compounds read low;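 active = OD600 absorbance below the run mean of sample wells minus 3.6 SD, in any replicate, cut at about 0.56 in these data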;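 also: stock transfer was 300 nL into about 60 µL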
ALR inh: inhibitors of human ALR sulfhydryl oxidase, primary screen, biochemical, H2O2 detection, HRP-luminol luminescence, single point; 3.8% of 290,000 active; FAD-linked sulfhydryl oxidase ALR (Homo sapiens), P55789; inhibition, % (no concentration beside the values); purified ALR, DTT oxidation;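 active = mean and each replicate at 75% or more; inconclusive = only one of the two met; inactive = neither met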;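 also: stock transfer was 7.5 nL into about 7.5 µL; 0% = neutral wells and 100% = wells with inactivated enzyme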
Target sequence (P55789 whole entry, looked up): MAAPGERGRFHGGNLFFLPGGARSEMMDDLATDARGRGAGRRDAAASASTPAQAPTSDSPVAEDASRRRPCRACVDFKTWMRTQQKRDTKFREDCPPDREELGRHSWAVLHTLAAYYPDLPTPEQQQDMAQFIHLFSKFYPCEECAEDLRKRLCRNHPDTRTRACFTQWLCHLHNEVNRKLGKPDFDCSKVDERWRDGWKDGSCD
Ecoli rRNA inh: reduced GFP signal of wild-type E. coli, primary screen, bacterial rRNA inhibitor project, GFP/RFP fluorescence, OD600, single point. GFP signal change (wild-type ribosome), % (test concentration not listed). 1.6% of 350,000 active. AID 720706, 2013. E. coli WT GFP vs humanized-ribosome RFP mutants, 24 h; active compounds read low; DMSO median 0, no signal -100;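 active = significant combined selectivity score with lowered wild-type GFP, culture density cut under 30%, mutant RFP and density less affected; inactive = any of these conditions unmet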; also: one replicate is shown; some compounds called inactive have numbers as strong as hits
FGF22 binding: binders of human FGF22 protein, primary screen, FGF22 synaptogenesis inhibitor project, biophysical, thermal shift, single point | Fibroblast growth factor 22 (Homo sapiens), Q9HCT0 | recombinant FGF22 thermal shift, SYPRO orange fluorescence; percent of sucrose octasulfate shift, DMSO zero | calls only at 9.99 µM | 1.5% of 340,000 active | AID 651658, 2012;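 active = melting point raised past a set limit in the mean and every replicate; inconclusive = no clear call; three in four hits are not shown here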
Target sequence (Q9HCT0 whole entry, looked up): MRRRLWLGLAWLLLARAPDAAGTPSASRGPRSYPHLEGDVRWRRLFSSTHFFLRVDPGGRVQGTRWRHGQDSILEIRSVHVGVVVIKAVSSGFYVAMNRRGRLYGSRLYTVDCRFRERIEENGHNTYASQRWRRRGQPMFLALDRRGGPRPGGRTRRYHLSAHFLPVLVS
Ecoli rRNA inh OD600: recorded beside Ecoli rRNA inh, whose call it bears; OD600 change, %; measured here: OD600 growth;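 optical density of the mix in the first replicate; 0 = DMSO median and -100 = no signal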
Ecoli rRNA inh RFP: further read-out of Ecoli rRNA inh, marked with its call; RFP signal change, %; measured here: RFP humanized mutant strains;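 first replicate; 0 = DMSO median and -100 = no signal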
Numbers without * were called inactive; i = inactive; ? = inconclusive; / = no result given.

Compound	MLL AF4-AF9 inh	HNF4A DNA FP	Vif A3G	E coli growth	ALR inh	Ecoli rRNA inh	Ecoli rRNA inh OD600	Ecoli rRNA inh RFP	FGF22 binding
O=C(COC(=O)CCOc1ccccc1)NCCc1ccccc1	3.2	-1.4	7%	0.65	-9	2	0	-2.0	i
Cc1nc(SCC(=O)Nc2nc3ccccc3s2)c(C#N)c(C)c1C	-0.2	-4.5	1%	0.72	5	3	22	-4.8	i
CC(CCc1ccccc1)NC(=O)c1ccc(NC(=O)c2ccc(Cl)cc2Cl)cc1 (stereo not drawn)	-3.5	0.0	15%	0.7	-2	6	10	-2.0	/
CSCc1cc(N2CCOCC2)nc(SCc2ccc(Cl)c(Cl)c2)n1	4.0	3.8	-4%	0.66	-12	-22	-25	-3.7	i
Oc1c(C(c2ccccn2)N2CCOCC2)ccc2cccnc12 (stereo not drawn)	/	-3.8	?	0.69	17	/	/	/	/
C[C@H]1CCCCO[C@H](CN(C)C(=O)CCC(F)(F)F)[C@@H](C)CN([C@@H](C)CO)C(=O)c2cc(NC(=O)C3CCCCC3)ccc2O1	-1.8	/	/	/	/	-1	-7	1.8	i
COc1cccc2c(=O)ccoc12	/	-1.1	4%	0.72	-17	/	/	/	/
Cc1ccc2cc(/C=N/NC(=O)c3ccc(F)cc3)c(Cl)nc2c1	-1.2	0.8	-3%	/	28	11	8	-1.1	i
C[C@@H]1CN([C@@H](C)CO)C(=O)c2cc(NS(=O)(=O)c3ccc(F)cc3)ccc2O[C@@H]1CN(C)C(=O)Nc1ccc2c(c1)OCO2	2.0	/	/	/	/	4	7	3.4	i
COCCNC(=O)c1ccccc1N(Cc1ccccc1)S(=O)(=O)c1ccccc1	-19	4.3	/	0.65	-15	-5	-3	5.3	i
O=C(CNc1cc([N+](=O)[O-])ccc1NCCO)Nc1cccc(S(=O)(=O)N2CCCCC2)c1	6.6	2.1	5%	0.64	97*	/	/	/	i
O=C1N/C(=N/S(=O)(=O)Cc2ccccc2)S/C1=C/c1ccc2c(c1)OCO2	-0.8	-4.5	?	0.68	42	-40*	-32*	-4.8*	i
FC(F)(F)c1cccc(N2CCc3cn[nH]c32)c1	/	1.3	-2%	0.71	44	/	/	/	/
O=C(NCCCNC(=O)c1ccccn1)c1ccccn1	/	-2.0	18%	0.72	3	-4	-2	-4.9	/
CCOCCCNC(=S)Nc1ccc2nc(N3CCCC3)cc(C)c2c1	/	-1.2	-1%	0.68	31	/	/	/	/
COc1cccc(-c2nc(-c3ccccc3)nc(N3CCN(C)CC3)c2C#N)c1	23	2.5	4%	0.63	-9	-50	-78	-11	i
CC(C)COP(=O)(c1ccc(N(C)C)cc1)C(O)c1ccccc1 (stereo not drawn)	-0.4	-4.2	-6%	0.66	11	2	0	-0.9	i
COc1ccc(C2C(C#N)=C(N)Oc3cc(C)n(Cc4ccncc4)c(=O)c32)cc1 (stereo not drawn)	/	9.6	3%	0.75	8	/	/	/	/
COc1ccccc1N1CCN(S(=O)(=O)c2cc(Br)cnc2N)CC1	-1.9	0.4	/	0.63	4	5	12	-3.4	i
CN(C)C(=O)CCc1ccc2c3c([nH]c2c1)[C@]1(CCC2CCCC2)[C@@H](C(=O)N2CCOCC2)C[C@H](CC(=O)NCC24CC5CC(CC(C5)C2)C4)C(=O)N1CC3	-21	4.4	2%	0.7	/	16	11	5.4	i
O=C(Cc1cccnc1)N1CC2(C1)[C@H](c1ccccc1)[C@H](CO)N2C(=O)C1CCCCC1	-2.2	/	/	/	/	0	5	-1.2	i
OC1CCCN(CC(O)COc2ccc(-c3ccccc3)cc2)C1 (stereo not drawn)	1.3	0.4	/	0.67	0	7	6	0.4	i
COCC(=O)N(C[C@H]1[C@H](c2ccccc2)[C@@H](CO)N1C(=O)NC(C)C)C(C)C	-4.1	/	/	/	/	1	1	-2.0	i
N#Cc1ccccc1OCC(=O)NNC(=O)c1ccncc1	-4.6	3.6	-3%	0.67	2	3	2	0.8	i
OCCOCCn1c(C2CCCN2c2nc(-c3ccc(F)cc3)cs2)nc2cc(C(F)(F)F)ccc21 (stereo not drawn)	/	1.1	/	0.65	-23	0	-1	2.7	i
Cc1nnc(NC(=O)CSc2nnc(Cc3cccn3C)n2CCc2ccccc2)s1	-25	-4.7	-3%	0.66	8	-10	-2	9.3	i
CCCNC(=O)c1ccccc1NC(=O)c1cccc(-n2cnnn2)c1	1.1	-0.2	29%	0.65	-4	4	7	-0.8	i
O=C1Nc2ccccc2OC1CC(=O)N1CCN(c2cccc(C(F)(F)F)c2)CC1 (stereo not drawn)	/	-0.6	0%	0.72	14	/	/	/	/
CSc1ncc(Cl)c(C(=O)Nc2cccnc2)n1	3.3	-0.3	-10%	0.65	-4	-2	-8	0.2	i
CS(=O)CCC(NS(=O)(=O)c1ccccc1)C(=O)O (stereo not drawn)	-2.9	4.1	5%	0.73	-3	5	-1	0.9	i

Three structures out of the list, arranged by length of the SMILES, rising:
Compound	MLL AF4-AF9 inh	HNF4A DNA FP	Vif A3G	E coli growth	ALR inh	Ecoli rRNA inh	Ecoli rRNA inh OD600	Ecoli rRNA inh RFP	FGF22 binding
COc1cccc2c(=O)ccoc12	/	-1.1	4%	0.72	-17	/	/	/	/
OC1CCCN(CC(O)COc2ccc(-c3ccccc3)cc2)C1 (stereo not drawn)	1.3	0.4	/	0.67	0	7	6	0.4	i
Cc1nnc(NC(=O)CSc2nnc(Cc3cccn3C)n2CCc2ccccc2)s1	-25	-4.7	-3%	0.66	8	-10	-2	9.3	i

The list continues:
Compound	MLL AF4-AF9 inh	HNF4A DNA FP	Vif A3G	E coli growth	ALR inh	Ecoli rRNA inh	Ecoli rRNA inh OD600	Ecoli rRNA inh RFP	FGF22 binding
Brc1cccc(C=Nc2cccc3ncccc23)c1	-20	4.5	/	0.71	-43	7	7	5.8	i
Cc1ccc(C2c3[nH]c4ccccc4c3C[C@H]3C(=O)N(c4ccccc4C(=O)N4CCC[C@H]4C(=O)O)C(=O)N23)cc1 (stereo partly drawn)	4.5	7.9	/	0.77	98*	/	/	/	i
Cc1ccc(N(C)S(=O)(=O)c2cccc(C(=O)NCC(c3ccco3)N3CCCC3)c2)cc1 (stereo not drawn)	6.3	1.0	/	0.65	-25	-1	2	2.2	i
O=C(Nc1ccccc1[N+](=O)[O-])c1cc(S(=O)(=O)Nc2ccccn2)ccc1Cl	2.9	0.3	/	0.66	-3	-7	-5	-3.0	i
CC(C)Oc1cccc(C2NC(=O)c3ccccc3O2)c1 (stereo not drawn)	-2.6	0.4	-3%	0.63	-15	1	0	6.1	i
CCc1nc2ccc(C(=O)Nc3ccc(C(N)=O)cc3)cn2c1N(CCC(C)C)CCN(C)C	4.6	-6.5	/	/	/	13	18	5.9	i
CO[C@@H]1CN(C)C(=O)c2ccc(NC(=O)c3ccccc3)cc2OC[C@H](C)N(C(=O)CN(C)C)C[C@H]1C	-1.3	/	/	/	/	-1	2	0.4	i
C[C@@H]1NC(=O)N(c2ccc(F)cc2)C1=O	-2.3	-0.6	-1%	0.7	-22	8	18	2.2	i
C/C(=N/NC(=O)c1cc(-c2cccc([N+](=O)[O-])c2)n[nH]1)c1cccc(O)c1	-4.1	1.1	/	/	3	-5	5	0.8	i
O=C(O)C(CO)(c1ccccc1)c1ccccc1	2.6	-5.0	/	0.68	2	12	8	-0.3	i
O=C(NCc1ccco1)c1ccc2c(c1)S(=O)(=O)c1ccccc1C2=O	-5.7	2.2	/	0.69	7	-24	-32	-15	i
C[C@H](CO)N1C[C@H](C)[C@H](CN(C)Cc2ccccc2)Oc2ncc(C#Cc3cccnc3)cc2C1=O	-2.2	/	/	/	/	-3	3	-2.3	i
O=C(O)CC(C(=O)Nc1cccc(C(F)(F)F)c1)C1CCCO1 (stereo not drawn)	/	1.8	10%	0.66	-12	/	/	/	/
O=C(Nc1sc2c(c1C(=O)O)CCC2)c1ccccc1Cl	-6.8	-1.4	/	0.64	45	-5	-10	-0.6	i
Cc1cc(=O)[nH]c(SCC(=O)Nc2cccc(C(F)(F)F)c2)n1	/	-2.8	1%	0.68	-15	/	/	/	/
O=C1C[C@H](NC(=O)OCc2ccccc2)CO1	-6.9	-0.8	-5%	0.7	-2	3	3	-0.3	i
CC(C)(Cc1nc2ccccc2[nH]1)C(=O)O	/	-2.3	4%	0.69	-5	/	/	/	/
CCNC(=S)NNc1nnc(-c2ccccc2)c(-c2ccccc2)n1	1.3	2.9	/	0.66	63	0	-2	-1.6	i
COc1ccc(NC(=O)N[C@H]2CC[C@H](CCNS(=O)(=O)c3ccccc3F)O[C@H]2CO)cc1	0.8	/	/	/	/	-3	5	-3.3	i
COc1ccc(CN2CCc3c([nH]c4ccccc34)C2)cc1Br	4.1	-0.4	1%	0.63	15	10	7	0.2	i
CNC[C@H]1OCCCC[C@H](C)Oc2ccc(NC(=O)c3ccccc3)cc2C(=O)N([C@@H](C)CO)C[C@@H]1C	-8.3	/	/	/	/	7	-3	-0.7	i
CC1=NN(c2ccccc2)C(=O)C1/C=C1\NC(=S)NC1=O (stereo not drawn)	1.4	-10	-10%	0.7	89*	4	13	4.4	i
CCOC(=O)c1sc(=S)n(-c2ccccc2)c1N	/	0.1	-10%	0.7	18	/	/	/	/
O=C(NCc1ccc(Cl)cc1)c1ccc2c(=O)n(CC3CCCO3)c(=S)[nH]c2c1 (stereo not drawn)	1.1	1.5	/	0.71	-3	7	3	1.7	i
CCNC(=O)COC(=O)c1cc(-c2ccco2)nc2ccccc12	/	-15	3.9µM*	0.68	43	0	6	1.2	i
O=C(Cn1cnc([N+](=O)[O-])n1)NC1CC1	-3.0	-1.1	9%	0.66	-33	8	12	0.1	i
C[C@@H]1CN([C@H](C)CO)C(=O)Cc2cc(NC(=O)Nc3cccc4ccccc34)ccc2O[C@@H]1CN(C)CC1CCCCC1	0.5	/	/	/	/	3	-7	1.1	i
Cc1cc(=O)oc2c(C)c(OCC(=O)N3CCN(c4cccc(Cl)c4)CC3)ccc12	-4.6	-0.8	/	0.72	-4	-4	-21	2.7	i
Cc1cccc(NC(=O)/C(C#N)=C/c2cn(CC(=O)NCc3ccco3)c3ccccc23)c1	/	2.8	32%	0.73	-11	/	/	/	/
O=C(Cc1ccc(-c2ccccc2)cc1)NNC(=S)NCc1ccco1	0.7	-1.2	-7%	0.72	0	-9	-16	-1.2	i
O=C(CSc1nc(C(F)(F)F)cc(=O)[nH]1)N1CCC(Cc2ccccc2)CC1	-5.1	-4.2	7%	0.7	3	-9	-34	2.8	i
Cc1csc(NC(=O)Cc2coc3cc(C)c(C(C)C)cc23)n1	/	1.8	-3%	0.71	89*	/	/	/	/
CCCCn1c(N)c(N(CCOC)C(=O)C(C)Oc2ccc(Cl)cc2)c(=O)[nH]c1=O (stereo not drawn)	-2.7	-0.5	0%	0.69	/	12	12	1.1	i
C[C@@H]1CN([C@@H](C)CO)C(=O)Cc2cc(NS(=O)(=O)c3cccs3)ccc2O[C@@H]1CN(C)C(=O)NC1CCCCC1	-1.2	/	/	/	/	0	-10	1.0	i

These rows are one share of the data (hit frequency here may not be typical).
